Sfp PPTase inh – Sfp phosphopantetheinyl transferase inhibition; AID 1490; Biochemical Sfp PPTase activity, qHTS; Q9F4F7; Potency, µM, inactives show max response, negative = inhibition, usual class: inhibitors; 310,000 compounds, 3.5% hits; active = well fitted inhibition curve with a large enough effect; inconclusive = small, poorly fitted or top-dose-only effect, or another doubt; inactive = no such curve, though single readings can be large or run the other way;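 note: the enzyme is Sfp with the accession as filed and its product quenches rhodamine fluorescence; potency is the fitted concentration of half-maximal effect; 0% = enzyme reaction without inhibitor and -100% = no enzyme wells; top concentration of the series not given in the record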
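Fluorescence-quenching assay with 15 nM Sfp, 5 uM rhodamine-CoA and 12.5 uM BHQ-2-labelled ybbR peptide in pH 7.6 Hepes/MgCl2 buffer. Enzyme was pre-incubated with compound for 15 min at room temperature. Rate was taken from the 30-min fluorescence change (525/598 nm).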
ClpP mod – qHTS Assay for Activators of ClpP; 340,000 compounds, 1.9% hits; ATP-dependent Clp protease proteolytic subunit (Bacillus subtilis (strain 168)), P80244; Potency, µM (highest dose often 57.5 µM), without a hit: at the top dose activity change, negative = active; AID 651965, 2013; purified B. subtilis ClpP, FRET peptide cleavage, 20 min; active = well fitted falling curve with a large enough effect; inconclusive = small, poorly fitted or top-dose-only effect; inactive = no such curve, though single readings can be large or run the other way; note: potency is the fitted concentration of half-maximal effect; the source files actives as falling curves though it sought activators and does not explain the sign; nearly all actives have a fitted effect of over 65% in size; many hits overshoot -100%
Target sequence (P80244 whole entry, looked up): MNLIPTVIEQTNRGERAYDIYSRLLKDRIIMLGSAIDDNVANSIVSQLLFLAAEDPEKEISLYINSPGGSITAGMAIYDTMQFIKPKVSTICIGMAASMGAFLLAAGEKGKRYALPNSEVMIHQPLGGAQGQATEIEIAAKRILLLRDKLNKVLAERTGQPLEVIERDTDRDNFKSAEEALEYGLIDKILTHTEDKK
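Purified B. subtilis ClpP, 10 microg/mL final in Tris/HCl pH8 with KCl, BSA, glycerol and Tween-20, cleaved an Abz/nitrotyrosine-quenched decapeptide. Fluorescence (ex 320, em 430) was read at 0 and 20 min at room temperature. Delta was normalized to 5.8 microM ADEP and DMSO/no-enzyme controls.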
PINK1 modulator – changes PINK1 expression. PINK1 immunofluorescence, high-content cytometry, 24 h. Potency, µM (series often up to 76.6 µM), inactives show at the highest dose activation (PINK1 increase), actives largely listed as activators. 410,000 compounds, 0.2% hits; active = well fitted activation curve with a large enough effect; inconclusive = small, poorly fitted or top-dose-only effect; inactive = flat fitted curve, though single readings scatter; cell line not stated here;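 note: potency is the fitted concentration of half-maximal effect; % of control where 0% means no effect; nearly all actives have a fitted effect of over 65% in size; a mitochondrial uncoupler was the plate control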
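Readout is PINK1 immunofluorescence, quantified alongside mitochondrial, cell and nuclear markers by laser-scanning microplate cytometry. Cells from a stable line were exposed to compound titrations (5 concentrations) for 24 hours, with CCCP controls.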
Menin-MLL FL inh – menin-MLL binding inhibition, fluorescein peptide | Fluorescence polarization, fluorescein-MLL peptide displacement from menin | AID 1766 | 290,000 tested, under 10 active | FP activity change, % at 61.4 µM; inconclusive = falling polarisation curve, or a change in total fluorescence; inactive = total fluorescence flat and polarisation flat or rising; no compound was filed as active; the % refers to the polarisation; negative = inhibition;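 note: % of control where 0% means no effect; inhibitors lower the polarisation; unlabelled MLL peptide was the positive control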
gsp antagonist – antagonizes gsp, the McCune-Albright syndrome mutation | gsp-mutant cells, cAMP HTRF, 30 min; control for the full effect not named in the record | 340,000 compounds, 0.4% hits | Potency, µM (highest dose often 76.9 µM), without a hit: at the highest dose activity change, negative = inhibition, usual class: inhibitors; active = falling curve of any shape with a large fitted effect; inconclusive = falling curve, mostly with a smaller effect; inactive = flat or rising curve; cell line not stated here;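 note: intracellular cAMP measured with PDE inhibitor Ro 20-1724 present during compound exposure; potency is the fitted concentration of half-maximal effect; % is set by controls: 0 for no effect and ±100 for the full control effect; nearly all actives have a fitted effect of over 65% in size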
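Cells, 2000/well, grown 16–24 h in DMEM 10% FBS with 0.5 mg/ml G418, then compounds plus […] (300 uM addition stock), 30 min at 37C. cAMP read by HTRF (cAMP-d2 and anti-cAMP antibody-K in lysis buffer) after 30 min RT.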
gsp ag – agonists of gsp mutant (McCune-Albright syndrome). 340,000 compounds, 0.13% hits. Potency, µM (titrated, usually from 76.9 µM), for the others: at the top dose activation (cAMP increase), usual class: activators. gsp mutant cells, cAMP HTRF, 30 min; control for the full effect not named in the record; active = well fitted activation curve with a large enough effect; inconclusive = small, poorly fitted or top-dose-only effect, or another doubt; inactive = no such curve, though single readings can be large or run the other way; cell line not stated here;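 note: phosphodiesterase inhibitor Ro 20-1724 added with compounds to block cAMP breakdown; potency is the fitted concentration of half-maximal effect; nearly all actives have a fitted effect of over 60% in size; about a fifth of the inactives were tested at one dose only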
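Cells stably selected in G418 were plated at 2000/well, grown 16-24 hr, then given compounds in DMSO with the PDE inhibitor […] (300 uM solution added) for 30 min at 37C; cAMP was read by HTRF.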
D2 agonist – agonists of human D2 dopamine receptor (beta-arrestin); DiscoveRx PathHunter D2 beta-arrestin, luminescence, 90 min; 100% = 57 uM dopamine signal; activation, % (concentration not given with the values); 360,000 compounds, 0.084% hits; AID 624465; in the data active = activation above about 40%; inconclusive = about 15% to 40%; inactive = below about 15%; note: the text of the record calls up to 30% inactive
Target sequence (P14416 whole entry, looked up): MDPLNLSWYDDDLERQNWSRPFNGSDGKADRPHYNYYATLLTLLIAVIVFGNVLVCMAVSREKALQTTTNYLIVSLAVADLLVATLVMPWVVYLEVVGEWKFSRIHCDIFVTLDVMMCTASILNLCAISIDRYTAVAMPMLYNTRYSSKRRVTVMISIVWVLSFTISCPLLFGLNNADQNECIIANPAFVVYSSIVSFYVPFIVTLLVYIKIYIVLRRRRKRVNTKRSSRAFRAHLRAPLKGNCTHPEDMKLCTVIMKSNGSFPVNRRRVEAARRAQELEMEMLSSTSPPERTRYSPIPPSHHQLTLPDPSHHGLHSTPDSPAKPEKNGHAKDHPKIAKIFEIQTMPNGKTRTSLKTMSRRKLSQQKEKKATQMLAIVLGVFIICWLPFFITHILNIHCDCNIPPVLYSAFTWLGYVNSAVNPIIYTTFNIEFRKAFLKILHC
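Agonist mode: compounds alone added to overnight-plated D2 PathHunter cells for 90 min at 37 C, with 57 uM final dopamine (EC100) defining full response. Beta-arrestin recruitment detected by chemiluminescent reagent, read after 1 h at ambient temperature.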
Starred values were filed as active, the others as inactive; ? = inconclusive; . = not tested or not shown; & = joins results of further samples; [ ] = remark or other dose.

SMILES | Sfp PPTase inh | ClpP mod | PINK1 modulator | Menin-MLL FL inh | gsp antagonist | gsp ag | D2 agonist
CCN(C(=O)COC(=O)CNC(=O)c1ccc(C)s1)c1ccccc1 | 9% | . | -2.3% | -3.1 | 4% | 3% | 2.9
CCN(C(=O)c1cc2ccccc2oc1=O)c1cccc(C)c1 | -1% | -1.2% | -3.0%[38.3 µM] | 2.7 | -5% | 0% | -2.7
COc1ccc(C2=NOC(C(=O)NC(C)C)C2)cc1 (stereo not drawn) | 0% | -2.0% | 3.8%[38.3 µM] | 5.6 | 5% | -45%[inhibitor] | -0.3
CCOc1ccccc1NC(=O)CCS(=O)(=O)c1ccc(OC)cc1 | 12% | 0.2%&0.3% | 0.4%&0.4% | 2.2 | 2% | 0% | -4.6
CCOC(=O)c1sc(NC(=O)Nc2ccc(Cl)cc2)nc1C | -16% | 3.3% | 4.3% | . | ? | -20% | -2.5
CCc1nc(N2CCN(Cc3ccc4c(c3)OCO4)CC2)c2oc3ccccc3c2n1 | 35µM* | ? | . | 1.4 | -10% | 18% | -1.8
Cn1c(SCC(=O)Nc2ccc3[nH]c(=O)[nH]c3c2)nnc1-c1ccccc1 | 10% | 0.8% | -1.5% | . | 4% | 2% | -1.7
Cc1cc(C=O)c(C)n1-c1ccc(N2CCOCC2)cc1 | 14% | 1.4% | 0.0% | 3.9 | 1% | 1% | -1.9
COc1cccc(C(=O)N2CCN(C(=O)c3cccs3)CC2)c1OC | 8% | 1.1% | -1.1% | -3.8 | 12% | -1% | -3.6
Cc1nc2ccc(NC(=O)N3CCOCC3)cc2nc1C | 32%[activator] | 4.1% | -0.2% | -8.9 | 15% | ? | -5.6
CCN(CC)C(=O)CSc1nc2ccc(NC(=O)CSc3nnc(COc4ccccc4C)n3C)cc2s1 | -5% | -1.0% | 2.3% | 3.5 | -27% | -13% | 1.2
N#CC1=C(N)Oc2cc(N)ccc2C1c1cc(Br)cs1 (stereo not drawn) | 14% | . | 6.3% | ? | -2% | 7% | 8.6
CCN(CC)S(=O)(=O)c1ccc(Cl)c(C(=O)N2CCc3ccccc32)c1 | 2% | -4.1% | -2.5% | 7.5 | 0% | -39%[inhibitor] | -0.7
CN(C)C(CNC(=O)CCCN1C(=O)c2cccc3cccc(c23)C1=O)c1ccccc1 (stereo not drawn) | -5% | . | -3.5% | 1.7 | -6% | ? | -3.5
O=C1c2ccccc2C(=O)N1c1cccnc1 | 5% | -0.3% | 3.0% | 1.2 | 3% | ? | -2.6
COC(=O)c1ccc(CNC(=O)c2ccc3c(c2)S(=O)(=O)N=C2CCCCCN23)cc1 | . | -3.3% | 1.7% | . | -2% | -1% | 2.9
COc1ccccc1CNC(=O)C1CCN(Cc2nc(-c3cccc(Cl)c3)oc2C)CC1 | 11% | -3.2% | -4.0% | 3.7 | 18% | 14% | -5.9
CN(C(=O)COC(=O)CNC(=O)c1ccc2ccccc2c1)c1c(N)n(Cc2ccccc2)c(=O)[nH]c1=O | 5% | -0.1% | 1.1% | -3.0 | 4% | -38%[inhibitor] | -1.1
CC(=O)c1cccc(-c2cnc3c(NC=O)cc(-c4ccc(N5CCN(C)CC5)cc4)cn23)c1 | . | -6.5% | 6.8% | . | . | . | 4.0
Cc1cc(C)cc(OCC(=O)NNC(=O)CC(C)c2ccccc2)c1 (stereo not drawn) | . | -1.0% | 2.8% | . | . | 22% | 0.9
COC(=O)c1cc(S(=O)(=O)NCC2CCN(Cc3cccc(F)c3)CC2)c[nH]1 | 7% | -1.5%&0.4% | 1.5%&2.6% | . | -6% | -6% | -3.3
O=C(Nc1cccc(C(=O)NC2CCCC2)c1)c1ccccc1 | 13% | 1.2% | -0.2% | 2.1 | -14% | 28% | -4.4
CC(NC(=O)COC(=O)c1ccc2c(c1)OCO2)c1ccccc1 (stereo not drawn) | -8% | . | 0.6% | 0.3 | -1% | -10%[15.4 µM] | -1.2
CCC/C(=N\NC(=O)c1csc(C)c1C)c1cccs1 | 5% | -1.3% | 1.7% | 0.2 | -7% | -25% | -4.9
Cc1nn(C(=O)c2cccc([N+](=O)[O-])c2)c(C)c1Sc1ccccc1 | -2% | -0.3% | 0.3% | -1.5 | 1% | -30% | -3.4
CCSc1nnc(CNc2ccc(C)cc2)n1C | 1% | -1.9% | 0.6% | 1.3 | -14% | 0% | -6.5
Cn1c(=O)c2cc(NC(=O)NCCc3ccccc3)ccc2n1Cc1ccccc1 | . | 4.4% | 0.3% | . | . | . | ?
CC(C)(C)CC(=O)N1CCN(c2ccc(S(=O)(=O)N3CCOCC3)cc2[N+](=O)[O-])CC1 | . | 0.8% | -0.7% | . | 3% | -12% | -2.8
Cc1cnc(C(=O)OCC(=O)c2ccc(F)cc2)cn1 | 6% | -0.2% | 0.5% | . | 0% | 11% | -3.5
Cc1cc(C)n2nc(SCC(=O)c3c(N)n(CC(C)C)c(=O)n(C)c3=O)nc2n1 | 26% | 0.7% | 3.2% | 2.9 | -1% | 29% | 0.4
CCCc1nc2cc(Cl)c([N+](=O)[O-])cc2o1 | -1% | . | 0.1% | -2.9 | 4% | -15% | 2.8
CCN1CCN(C(=O)C2CCN(C(=O)Nc3ccccc3)CC2)CC1 | . | -0.9% | 0.2% | . | 18% | 11% | 4.4
O=C(N/N=C/c1c(O)ccc2ccccc12)c1ccc(Br)o1 | -3% | -0.6% | 0.1% | ? | 27% | -7%[15.4 µM] | -1.7
O=C(CSc1nccn1-c1cccc(Cl)c1)NO | 4% | -1.8% | 3.4% | -1.4 | 11% | 30% | -2.4
O=C(O)COc1ccccc1/C=N/NC(=O)CSc1nnc(SCc2ccccc2)s1 | -2% | -8.3% | -0.3% | 4.6 | 8% | 15% | -4.1
NC(=O)c1c[nH]c2ccccc12 | 5% | 0.8% | -0.6% | 4.0 | 3% | . | -5.9
C/C=C/C(=O)OCC(=O)Nc1ccc(OC)c(Cl)c1 | 15% | 3.5% | 0.6% | . | -6% | 10%[15.4 µM] | -5.8
CCN1CCN(C(=S)NCC(C)C)CC1 | -14% | -1.7% | 1.8% | 1.7 | 16% | 23% | -3.0
Cc1cc(Cl)ccc1Oc1nc(-c2ccc(F)cc2)ccc1C#N | 13% | 91% | ? | 1.5 | 8% | -6% | -2.9
Cc1ccc2ccc(C)[n+](CCCS(=O)(=O)[O-])c2c1 | -5% | . | -0.2% | 1.6 | 6% | 15%[15.4 µM] | -0.9
CC(C)Cc1nc2ccccc2[nH]1 | 10% | 0.5% | 0.2% | 2.3 | 10% | -1%[15.4 µM] | -7.2
COc1ccccc1NNC(=O)c1cccnc1Oc1ccccc1 | ? | . | -1.0% | 4.3 | 7% | 21%[15.4 µM] | -4.0
COc1ccc(Nc2cc(C(=O)NC3CCCC3)c3ccccc3n2)c(OC)c1 | 19% | 14%&34% | 3.3%&6.9% | -0.1 | -8% | -42%[inhibitor] | -0.4
CCC(C)[C@H](NC(=O)OC(C)(C)C)C(=O)N/N=C/c1ccc2nccnc2c1 (stereo partly drawn) | 13% | -9.5% | 0.3%[38.3 µM] | -3.2 | 10% | 0% | 1.0
COc1ccc(-n2c(COc3ccc(C)cc3)n[nH]c2=S)cc1 | -10% | 0.5% | -1.4% | 1.2 | -22% | -28% | 11
O=C(O)c1ccc(COCC(F)(F)F)cc1 | -5% | -3.6% | 1.1% | 7.4 | -8% | 10% | -0.2
O=C(CCNC(=O)Cn1cnc2ccccc2c1=O)NCCC1=CCCCC1 | -8% | -0.2% | 1.0% | 1.2 | 6% | -1% | -0.8
COc1ccccc1C(CNc1nc(C(F)(F)F)nc2ccccc12)N(C)C (stereo not drawn) | 1% | . | -0.4% | -3.5 | 7% | 26% | 2.2
Cc1cccc(NS(=O)(=O)c2ccc(C(C)(C)C)cc2)n1 | 7% | 4.3% | -0.9% | 1.2 | -2% | -18% | 6.8
CN(C)S(=O)(=O)c1cccc(NC(=S)N2CCc3ccccc32)c1 | ? | -3.3% | 0.5% | 6.1 | -29% | -17% | -0.4
CC(CCCCCCCCC(=O)O)N(CCO)C(=O)OC(C)(C)C (stereo not drawn) | . | 0.7% | 1.5% | . | -9% | -26% | -4.2
COc1ccc(N2CCN(c3nc(C)c(C)c(=O)[nH]3)CC2)cc1 | 14% | -1.5% | 0.5% | -0.7 | 2% | -25%[15.4 µM] | -4.2
CC(C)(C)OC(=O)C[C@H]1C/C=C\C[C@@H](CC(=O)N[C@@H](CO)Cc2ccccc2)C(=O)NC[C@H](c2ccccc2)OC1=O | . | -0.8% | -0.3% | . | -3% | . | -1.2
O=C(COC(=O)Cc1ccc(Br)cc1)NC1CCCCC1 | 16% | . | -1.0% | -3.1 | -2% | 12% | 5.4
Cc1cccn2cc(-c3cccc(S(=O)(=O)N4CCOCC4)c3)nc12 | -2% | -0.1% | 1.7% | . | 6% | -1% | 0.2
CC(=O)NC(NC(C)=O)c1cccc(OCc2ccccc2)c1 | 14% | . | -0.3% | 0.6 | 14% | -14%[15.4 µM] | -3.9
O=C(COc1ccccc1)N(Cc1cc2ccccc2[nH]c1=O)CC1CCCO1 (stereo not drawn) | -2% | ? | -1.4% | -0.4 | -2% | -8% | -2.2
O=C(OCC#CCSc1nc2ccccc2o1)c1cc2ccccc2o1 | -2% | -8.1% | 4.7% | -0.2 | -3% | 5% | -0.9
NC(=O)c1nc(C(=O)N2CCN(c3ccccc3)CC2)c2ccccc2n1 | . | -5.3% | 2.7% | . | -7% | . | 0.0
CC(C)CNC(=O)C1Nc2ccccc2C2C=CCC12 (stereo not drawn) | . | -6.5% | 0.2% | . | -6% | ? | 2.7

Assay outcomes: PubChem, National Center for Advancing Translational Sciences (NCATS)
